StopGo reporter: High Throughput Screening for Foot and Mouth Disease Virus Antivirals. hit rate 1.2% among 410,000. human cells with a luciferase reporter of 2A StopGo recoding; control for the full effect not named in the record. Potency, µM (top dose mostly 57.9 µM), for the others: top-dose signal change, negative = less light. AID 1159524, 2015; active = well fitted falling curve with a large enough effect; inconclusive = small, poorly fitted or top-dose-only effect; inactive = no such curve, though single readings can be large or run the other way; tested in HEK293T cells; also: % is scaled to controls: 0 for no effect and ±100 for the full control effect; nearly all actives have a fitted effect of over 45% in size; luciferase light after 4 h
Cruzain inh Det: qHTS Assay for Promiscuous and Specific Inhibitors of Cruzain (with detergent); Cruzipain (Trypanosoma cruzi), P25779; purified cruzain, Z-FR-AMC fluorescence, 0.01% Triton; Potency, µM, without a hit: max response, negative = inhibition, usual class: inhibitors; hit rate 0.43% among 200,000; AID 1478, 2009; active = well fitted curve in the direction sought with a large enough effect; inconclusive = small, poorly fitted or top-dose-only effect, or another doubt; inactive = no such curve, though single readings can be large; an effect the other way counts as inactive or inconclusive;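 also: plate controls were neutral wells for no effect and buffer without enzyme for full effect; nearly all actives have a fitted effect of over 40% in size; top concentration of the series not given in the record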
Target sequence (P25779 123-467 limits assumed): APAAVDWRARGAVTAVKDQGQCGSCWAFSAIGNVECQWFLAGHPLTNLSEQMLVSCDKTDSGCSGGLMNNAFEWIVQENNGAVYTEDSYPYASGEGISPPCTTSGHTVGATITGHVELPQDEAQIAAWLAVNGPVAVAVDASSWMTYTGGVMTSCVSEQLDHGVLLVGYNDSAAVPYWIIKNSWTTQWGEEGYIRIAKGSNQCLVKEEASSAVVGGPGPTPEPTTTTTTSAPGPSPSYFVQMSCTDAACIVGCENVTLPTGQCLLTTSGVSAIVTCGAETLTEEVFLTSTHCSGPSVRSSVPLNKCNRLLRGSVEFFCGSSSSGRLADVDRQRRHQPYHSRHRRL
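Detergent-containing run (0.01% Triton X-100) in acetate buffer pH 5.5 with 5 mM DTT: enzyme at 1.5 nM final, 15 min compound preincubation at room temperature, then 2 uM Z-FR-AMC substrate. Activity taken as 60 s fluorescence increase at 360/450 nm.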
NS1 inh: qHTS Assay for Inhibitors of Influenza NS1 Protein Function; Potency, µM (doses to about 46.1 µM), for inactives: top-dose activity, positive = more growth; S. cerevisiae slowed by influenza A NS1, growth recovery by OD600; hit rate 0.4% among 270,000; AID 2326, 2010; also: actives are rising curves; nearly all actives have a fitted effect of over 50% in size
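Read-out: OD600 growth recovery of NS1-expressing budding yeast. Cells grown overnight at 30C in -URA glucose medium, washed, resuspended and diluted 1:100 in 2% galactose assay medium, pH 6.0. Same strain lacking NS1 served as positive control.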
SARS PLP yeast: qHTS of Yeast-based Assay for SARS-CoV PLP; AID 485353, 2010; hit rate 0.19% among 330,000; Potency, µM (highest dose often 32.9 µM), for inactives: at the highest dose activity, positive = growth rescue; S. cerevisiae expressing SARS-CoV PLpro, growth rescue; control for the full effect not named in the record; also: 0% is about no effect; nearly all actives have a fitted effect of over 55% in size; growth read by luminescence after 48 h
MARV entry inh: qHTS for inhibitors of binding or entry into cells for Marburg Virus; Marburg virus pseudotyped entry inhibition, cell reporter; control for the full effect not named in the record; about a third of the inactives were read at about 46 µM; Potency, µM (highest dose often 37.8 µM), for inactives: top-dose activity change, negative = inhibition, usual class: inhibitors; hit rate 1.8% among 300,000; active = well fitted inhibition curve with a large enough effect; inconclusive = small, poorly fitted or top-dose-only effect, or effect the other way; inactive = flat fitted curve, though single readings scatter; tested in HEK293 cells; about a fifth of its hits are not listed in these tables; also: % is scaled to controls: 0 for no effect and ±100 for the full control effect; luciferase read-out
RE007 growth inh: qHTS Assay for Inhibitors of the HIV-1 protein Vpr; S. pombe RE007 Vpr strain, BacTiter-Glo ATP luminescence, 24 h; control for the full effect not named in the record; Potency, µM (highest dose often 92.2 µM), inactives show at the top dose activity change, negative = less growth; hit rate 0.21% among 360,000; active = well fitted falling curve with a large enough effect; inconclusive = small, poorly fitted or top-dose-only effect; inactive = no such curve, though single readings can be large or run the other way;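 also: % is scaled to controls: 0 for no effect and ±100 for the full control effect; nearly all actives have a fitted effect of over 50% in size; the assay follows cell death caused by Vpr and the record does not say whether a fall means rescue or toxicity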
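Fission yeast RE007 carrying one integrated HIV-1 vpr copy, seeded at OD 0.01 in PMG+AL medium with 23 nL pinned compound. Grown 24 h at 30 degrees; viability read by BacTiter-Glo luminescence after 5 min.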
Lassa entry inh: qHTS for Inhibitors of binding or entry into cells for Lassa Virus | Lassa virus pseudotype entry inhibition, cell reporter; control for the full effect not named in the record | Potency, µM (doses to about 37.9 µM), for inactives: top-dose activity change, negative = inhibition, usual class: inhibitors | hit rate 1.2% among 300,000 | AID 540256, 2011; active means well fitted inhibition curve with a large enough effect; inconclusive means small, poorly fitted or top-dose-only effect, or effect the other way; inactive means flat fitted curve, though single readings scatter; tested in HEK293 cells; also: % is scaled to controls: 0 for no effect and ±100 for the full control effect; nearly all actives have a fitted effect of over 50% in size; luciferase read-out
Cruzain noTriton: qHTS Assay for Promiscuous and Specific Inhibitors of Cruzain (without detergent) | Cruzipain (Trypanosoma cruzi), P25779 | purified cruzain, Z-FR-AMC fluorescence, no detergent | Potency, µM, inactives show max response, negative = inhibition, actives largely listed as inhibitors | hit rate 2.3% among 200,000; active = well fitted curve in the direction sought with a large enough effect; inconclusive = small, poorly fitted or top-dose-only effect, or another doubt; inactive = no such curve, though single readings can be large; an effect the other way counts as inactive or inconclusive;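 also: plate controls were enzyme without inhibitor for no effect and buffer without enzyme for full effect; nearly all actives have a fitted effect of over 40% in size; top concentration of the series not given in the record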
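Purified cruzain at 1.5 nM, pre-incubated 15 min with compound at room temperature in 100 mM sodium acetate pH 5.5, 5 mM DTT, 0.00005% Triton X-100. Reaction started with 2 uM Z-FR-AMC; AMC fluorescence increase over 60 s gives rate.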
* = called active by the depositor; ? = inconclusive; · = no result given; & = joins results of further samples; [ ] = dose if it differs, or a comment. Unless noted, calls follow the shape of the dose curve; as a rule, active means well fitted rising curve with a large enough effect; inconclusive means small, poorly fitted or top-dose-only effect; inactive means no such curve, though single readings can be large or run the other way. Potency is read from the fitted curve at half-maximal effect.

SMILES,StopGo reporter,Cruzain inh Det,NS1 inh,SARS PLP yeast,MARV entry inh,RE007 growth inh,Lassa entry inh,Cruzain noTriton
Cn1c(SCC(=O)N2CCOCC2)nnc1-c1ccco1,2%,·,4%,0%,?,3%,17%,·
Nc1nc(Nc2cccc(F)c2)nc(N2CCOCC2)c1[N+](=O)[O-],-26%,·,5%,-1%,-3%[46.1 µM],23%,?,·
O=C(Nc1ccccc1OC(F)F)c1ccc(S(=O)(=O)N2CCCC2)cc1,-6%,·,·,-1%,1%,0%,0%,·
CCN=C1SC(CC(=O)NCC)C(=O)N1CC (stereo not given),0%,4.2%,10%,?,4%[46.1 µM],-25%,10%,-2%
Cc1[nH]c2ccc(OC(F)(F)F)cc2c1CCNCc1cccc([N+](=O)[O-])c1,-19%,·,4%,-4%,?,-21%,10%,·
CNCC(C)COc1ccccc1OCc1ccccc1 (stereo not given),-27%,-2.9%,-7%,28%,?,-28%,?,8%
c1ccc(Cc2cc[n+](Cc3ccccc3)cc2)cc1,-24%,·,-2%,0%,9%[46.1 µM],-8%,22%,·
Nc1ncnc2c1ncn2CCN1CCCCC1,-17%,4.0%,-3%,4%,-10%[46.1 µM],-5%,0%,6%
CCc1[nH]c(C(=O)O)c(C)c1C(=O)OC,0%,·,1%,0%,2%[46.1 µM],1%,1%[46.1 µM],·
CCOC(=O)CC(=O)CSc1nc(C)cc(-c2cccnc2)c1C#N,·,-5.1%,12%,?,5%,-14%,-3%,1%
CCOc1ccc(C2C3=C(CCCC3=O)N(CC(=O)O)C3=C2C(=O)CCC3)cc1,-11%,·,?,3%,19%[46.1 µM],-20%,11%[46.1 µM],·
CCOC(=O)CC(NC(=O)c1ccccc1)c1ccc(OC)cc1 (stereo not given),-14%,·,·,3%,-6%[46.1 µM],3%,?,·
O=C(Cc1cccs1)Nc1ccc(-c2nnc(-c3ccccc3)o2)cc1,8%,·,·,·,12%,4%,?,·
CCc1ccc(-n2c(=O)c3sc4ccccc4c3n(CC(=O)NCc3ccccc3)c2=O)cc1,-16%,1.1%,·,·,9%[46.1 µM],·,?,11%
Cc1ccc(C)c(NNC(N)=S)c1,-8%,·,·,-2%,-2%[46.1 µM],?,15%,·
Cc1cccc(CC2S/C(=N/c3ccccn3)NC2=O)c1 (stereo not given),-4%,1.2%,3%,-31%,7%,2%,?,1%
CN(CC(=O)NC1CCCC1)S(=O)(=O)c1cnc[nH]1,0%,·,·,1%,17%[46.1 µM],2%,-13%[46.1 µM],·
COc1ccc(NC(=O)CS(=O)(=O)c2cn(CC(=O)N3CCOCC3)c3ccccc23)cc1OC,-10%,·,-1%,1%,·,-16%,·,·
Cc1cc(N2CCN(c3ccc(F)cc3)CC2)nc(-c2ccccc2)n1,-24%,-8.6%,-32%,-67%,0%,-30%,-20%,5%
CC(=O)/C(N=Nc1ccc(C(=O)O)cc1)=C(\C)O,5%,·,-1%,-1%,13%[46.1 µM],6%,5%,·
Cc1cccc(C)c1OCC(=O)Nc1ncn[nH]1,-10%&-8%,2.2%&-1.8%,-19%,2%,6%,27%,4%,-5%&3%
COc1ccccc1C(=O)COC(=O)c1cccc(S(=O)(=O)N2CCCC2)c1,1%,·,-14%,23%,-30%,0%,0%,·
COc1ccc(/C=N/NC(=O)c2c(Br)cnn2C)c2ccccc12,-9%,·,11%,-2%,16%,-3%,-2%,·
CCCC(=O)Nc1cccn(Cc2ccccc2Br)c1=O,-10%,-0.9%,-12%,6%,-26%,10%,11%,-9%
Cc1ccc(Cl)cc1NS(=O)(=O)c1cc2[nH]c(=O)c(=O)[nH]c2cc1C,-4%,·,12%,?,·,3%,·,·
Cc1ccc2c(C)c(C(=O)N(Cc3ccc(N(C)C)cc3)Cc3ccco3)oc2c1C,-24%,-5.8%,·,·,-2%[46.1 µM],·,?,-27%
Cc1ccc(CN(C(=O)c2cc(=O)c3cc(C)cc(C)c3o2)C2CCS(=O)(=O)C2)cc1 (stereo not given),-2%,·,-5%,-2%,·,2%,·,·
COc1ccc(C2(CNC(=O)C(=O)Nc3ccc(C)cc3)CCOCC2)cc1,16%,·,2%,0%,·,-17%,?,·
CCN(CC)c1ccc2cc(NC(=O)CCC(=O)O)c(=O)oc2c1,·,-4.3%,3%,1%,1.8µM*,5%,?,-16%
O=C1C2=C(NC(=S)NC2c2ccc(Cl)cc2)NC(c2ccc(Cl)cc2)N1c1ccc(Cl)cc1 (stereo not given),?,3.2%,0%,-3%,16µM*,5%,-1%,?

Record cards, from the list above. Order of values: StopGo reporter	Cruzain inh Det	NS1 inh	SARS PLP yeast	MARV entry inh	RE007 growth inh	Lassa entry inh	Cruzain noTriton
`CCc1[nH]c(C(=O)O)c(C)c1C(=O)OC` as listed: 0%	·	1%	0%	2%[46.1 µM]	1%	1%[46.1 µM]	·
`CCN=C1SC(CC(=O)NCC)C(=O)N1CC` (stereo not given) as listed: 0%	4.2%	10%	?	4%[46.1 µM]	-25%	10%	-2%

The listing picks up; the 2 compounds before the break are reprinted first.
SMILES,StopGo reporter,Cruzain inh Det,NS1 inh,SARS PLP yeast,MARV entry inh,RE007 growth inh,Lassa entry inh,Cruzain noTriton
CCN(CC)c1ccc2cc(NC(=O)CCC(=O)O)c(=O)oc2c1,·,-4.3%,3%,1%,1.8µM*,5%,?,-16%
O=C1C2=C(NC(=S)NC2c2ccc(Cl)cc2)NC(c2ccc(Cl)cc2)N1c1ccc(Cl)cc1 (stereo not given),?,3.2%,0%,-3%,16µM*,5%,-1%,?
COc1ccc(Cc2nnc(NC(=O)c3cccc(F)c3)s2)cc1OC,-4%,·,4%,1%,·,4%,·,·
CCCCNC(=O)O[C@H]1C[C@@H]2CCN3C(=O)CCC(C)(C)[C@H](C1)[C@H]23,0%,·,4%,-1%,·,15%,·,·
CCN(CC)S(=O)(=O)c1cc(C(=O)OC)ccc1Cl,-5%,4.8%,5%,5%,13%,2%,0%,-7%
CC(=O)NCCNC(=O)CCCn1c(=O)[nH]c2ccsc2c1=O,3%,0.5%,·,·,2%[46.1 µM],·,16%[46.1 µM],-5%
Cc1noc(C)c1S(=O)(=O)N1CCC(C(=O)N2CCC(C)CC2)CC1,-23%,3.3%,-1%,0%,-32%,0%,?,3%
O=C(NCCCCc1ccccc1)Nc1ccc(F)cc1F,6%,·,-12%,17%,·,8%,·,·
Cc1ccc(NC(=O)c2ccc(C(C)(C)C)cc2)cc1[N+](=O)[O-],19%,-4.3%,14%,12%,22%,-2%,-1%,7%
CC(=O)c1ccc(N2CCN(Cc3nc(Cc4ccccc4)no3)CC2)cc1,?,·,2%,0%,·,-6%,·,·
COc1cccc(NC(=O)CCC(=O)NCc2ccco2)c1,-5%,5.2%,15%,4%,1%,32%,3%,11%
CCCCCSc1nnc(C)c(=O)[nH]1,-11%,6.0%,-16%,-2%,-8%,-1%,5%,0%
CCCn1c(=O)c(-c2ccccc2)c(O)c2ccccc21,9%,-1.4%,-56%,-10%,17%[46.1 µM],-17%,-3%,-11%
Brc1ccc(-c2nc(N3CCN(c4ccccc4)CC3)c3ccccc3n2)cc1,0%,0.5%,·,·,·,·,?,-10%
Cc1ccnc(NS(=O)(=O)c2ccc(N3C(=O)C4CCCCC4C3=O)cc2)n1 (stereo not given),31%[activator],·,4%,10%,11%[46.1 µM],2%,16%[46.1 µM],·
FC(F)(F)c1ccc(Sc2nnc(-c3cccs3)n2CC2CCCO2)nc1 (stereo not given),-11%,2.7%,-3%,1%,0%&0%,4%,-12%,5%
CCCn1c(=O)c(C(=O)NCCc2ccc(OC)cc2)c(O)c2ccccc21,-9%,·,4%,19%,·,0%,·,·
Oc1c(/C=N/Nc2cccc3cccnc23)ccc2ccccc12,19%,-0.3%,21%,5%,22%,-17%,8%,32µM*
Cc1nn(C)cc1CN1CCCC(C(=O)c2ccc(-c3ccccc3)c(F)c2)C1 (stereo not given),-9%,·,-3%,-1%,?,-1%,?,·
O=C(NCCc1ccc(Cl)cc1)c1ccc(CSCc2ccccc2Cl)o1,-27%,1.1%,·,·,·,·,8%[46.1 µM],5%
COc1ccccc1C(C)NC(=O)c1cc(=O)[nH]c2ccccc12 (stereo not given),2%,·,-8%,7%,3%[46.1 µM],-1%,1%,·
COc1ccccc1NC(NC(=O)c1ccco1)C(=O)c1ccccc1 (stereo not given),·,-4.7%,3%,1%,-4%,6%,26%,1%
CN(C)CCN(C(=O)/C=C/c1cccs1)c1nc2ccc(F)cc2s1,?,-30%,2%,-4%,?,5%,?,-3%
COc1ccc(OC)c(-c2csc(NC(=O)Cc3ccccc3OC)n2)c1,47%[activator],·,-16%,-4%,?,1%,7.9µM*,·

Screening results (PubChem)
